Compound activity (PubChem BioAssay)
Vaccinia stage – Vaccinia orthopox stage-specific inhibition. Vaccinia-infected cells, mCherry/Venus stage reporter fluorescence; active compounds read low; some inactives read as strong as hits. actives 0.01% (n = 89,000). AID 1053133. activity change (mCherry), % (no concentration beside the values);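 active = mCherry past -33% and 40 or more points under the early reporter, replicates agreeing; inconclusive = past -33% without that gap or agreement; tested in A549 cells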;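 note: scaled between vehicle wells and reference inhibitor wells; 23 nL library stock went into each well; one replicate is shown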
Vaccinia stage Venus – further read-out of Vaccinia stage, marked with its call; activity change (Venus), %; measured here: Venus reporter, other viral stage;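 negative = less Venus signal; first of two replicates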
* marks the source's active call; other numbers are inactive results; ? = inconclusive; nt = no result given.

SMILES	Vaccinia stage	Vaccinia stage Venus
Cc1noc(C)c1S(=O)(=O)Nc1ccc2c(c1)CC(=O)N([C@@H](C)CO)C[C@H](C)[C@@H](CN(C)CC1CCCCC1)O2	-9	1
O=C(C[C@@H]1C[C@@H]2c3cc(NC(=O)c4ccc5c(c4)OCO5)ccc3O[C@@H]2[C@H](CO)O1)NCCc1ccccc1	-10	-2
COc1ccccc1CN(C)C[C@H]1OCc2ccccc2-c2c(n(C)c3ccccc23)C(=O)N([C@H](C)CO)C[C@H]1C	-18	-23
O=C(NCC[C@@H]1CC[C@@H](NS(=O)(=O)c2ccc(F)cc2)[C@@H](CO)O1)c1ccc2c(c1)OCO2	-12	-9
O=C(NC1CCC1)[C@H]1[C@H](CO)[C@H]2Cn3c(ccc(-c4ccncc4)c3=O)[C@@H]1N2Cc1cocn1	6	10
CC(C)CC#Cc1cnc2c(c1)C(=O)N([C@H](C)CO)C[C@H](C)[C@@H](CN(C)CC1CCOCC1)O2	7	9
CC(C)NC(=O)Nc1ccc2c(c1)CC(=O)N([C@H](C)CO)C[C@H](C)[C@H](CN(C)Cc1ccc(-c3ccccc3)cc1)O2	-15	-9
O=C(CN1CCOCC1)NCC[C@H]1CC[C@@H](NC(=O)Nc2ccccc2)[C@@H](CO)O1	13	23
CCC(=O)N(C)C[C@@H]1[C@H](c2ccc(-c3ccccc3F)cc2)[C@H](CO)N1C(C)=O	-4	-2
C[C@H]1CN([C@@H](C)CO)C(=O)c2cc(NS(=O)(=O)c3ccc(Cl)cc3)ccc2O[C@H]1CN(C)CC1CCCCC1	-1	-8
C[C@H]1CN([C@@H](C)CO)C(=O)c2cc(NS(=O)(=O)c3ccc(F)cc3)ccc2O[C@@H]1CN(C)S(=O)(=O)c1cn(C)cn1	1	-2
C[C@H]1CN([C@@H](C)CO)C(=O)c2cccc(NC(=O)Nc3ccc(F)cc3)c2O[C@@H]1CN(C)S(=O)(=O)c1ccc(Cl)cc1	-9	-14
COc1ccc2c3c(n(C)c2c1)[C@@H](CO)N(C(=O)NC1CCCCC1)CC31CCN(C)CC1	-16	-15
COc1cc2c(cc1OC)CN(C(=O)[C@@H]1[C@H]3C(=O)O[C@H](c4ccccc4)[C@H](c4ccccc4)N3[C@H](c3ccc(O)cc3)[C@@]13C(=O)Nc1ccccc13)CC2	15	16
C[C@H]1CN([C@@H](C)CO)S(=O)(=O)c2ccc(C3=CCCCC3)cc2O[C@H]1CN(C)Cc1ccccn1	?	nt
COc1ccc2c3c(n(C)c2c1)[C@H](CO)N(C(=O)Nc1ccc(F)cc1)CC31CN(Cc2ccccc2F)C1	-34	-32
C[C@H](CO)N1C[C@H](C)[C@@H](CN(C)CC2CCCC2)Oc2ncc(-c3cccc(F)c3)cc2C1=O	-17	-11
C[C@H]1CN([C@@H](C)CO)C(=O)Cc2cc(NC(=O)CCCN(C)C)ccc2O[C@@H]1CN(C)CC1CCCCC1	-7	4
CN(C)C(=O)C[C@H]1C[C@@H]2c3cc(NC(=O)C4CCOCC4)ccc3O[C@@H]2[C@@H](CO)O1	1	-4
C[C@@H]1CN([C@@H](C)CO)C(=O)c2cc(NS(=O)(=O)c3ccc(Cl)cc3)ccc2O[C@@H]1CN(C)S(=O)(=O)c1ccc(Cl)cc1	?	nt
COc1ccc(S(=O)(=O)Nc2ccc3c(c2)C(=O)N([C@@H](C)CO)C[C@H](C)[C@H](CN(C)C(=O)Cc2ccccc2)OCCCC[C@H](C)O3)cc1	-31	-34
Cc1noc(C)c1S(=O)(=O)Nc1ccc2c(c1)C(=O)N([C@@H](C)CO)C[C@@H](C)[C@@H](CN(C)S(=O)(=O)c1ccc(F)cc1)O2	8	4
CCCNC(=O)C[C@H]1CC[C@H]2[C@H](COc3ccc(NC(=O)NCC)cc3C(=O)N2C)O1	0	3
OC[C@@H]1[C@H](c2ccc(-c3ccc(F)cc3)cc2)[C@H]2CN(CCC(F)(F)F)CCCCN12	?	nt
CC(C)CN(C[C@H]1N[C@H](CO)[C@@H]1c1ccccc1)C(=O)C1CCCC1	12	6
O=C(NC1CCCCC1)N1CC(=O)N2[C@@H](CO)[C@H](c3ccc(-c4cccnc4)cc3)[C@@H]2C1	12	13
C[C@H](CO)N1C[C@H](C)[C@@H](CN(C)Cc2ccc(C(F)(F)F)cc2)Oc2ccc(NS(=O)(=O)c3cn(C)cn3)cc2C1=O	4	-2
CC(C)NC(=O)N(C)C[C@H]1Oc2cc(C#CCN(C)C)ccc2S(=O)(=O)N([C@H](C)CO)C[C@H]1C	14	15
COc1ccc(S(=O)(=O)N(C)C[C@H]2Oc3c(NC(=O)C4CC4)cccc3C(=O)N([C@@H](C)CO)C[C@@H]2C)cc1	-1	10
C[C@H]1CN([C@@H](C)CO)C(=O)c2cccc(NS(=O)(=O)c3ccccc3)c2O[C@@H]1CN(C)CC1CCCCC1	9	6

Exported in CSV form: entries from further up
Structure,Vaccinia stage,Vaccinia stage Venus
CCCNC(=O)C[C@H]1CC[C@H]2[C@H](COc3ccc(NC(=O)NCC)cc3C(=O)N2C)O1,0,3
O=C(NC1CCCCC1)N1CC(=O)N2[C@@H](CO)[C@H](c3ccc(-c4cccnc4)cc3)[C@@H]2C1,12,13

In the list so far, these have a CF3 group.
SMILES	Vaccinia stage	Vaccinia stage Venus
OC[C@@H]1[C@H](c2ccc(-c3ccc(F)cc3)cc2)[C@H]2CN(CCC(F)(F)F)CCCCN12	?	nt
C[C@H](CO)N1C[C@H](C)[C@@H](CN(C)Cc2ccc(C(F)(F)F)cc2)Oc2ccc(NS(=O)(=O)c3cn(C)cn3)cc2C1=O	4	-2

Copied from the list.
Vaccinia stage Venus, `C[C@H](CO)N1C[C@H](C)[C@@H](CN(C)Cc2ccc(C(F)(F)F)cc2)Oc2ccc(NS(=O)(=O)c3cn(C)cn3)cc2C1=O` → -2
Vaccinia stage, `C[C@H]1CN([C@@H](C)CO)C(=O)Cc2cc(NC(=O)CCCN(C)C)ccc2O[C@@H]1CN(C)CC1CCCCC1` → -7
Vaccinia stage Venus, `COc1ccc(S(=O)(=O)N(C)C[C@H]2Oc3c(NC(=O)C4CC4)cccc3C(=O)N([C@@H](C)CO)C[C@@H]2C)cc1` → 10

Next records follow.
SMILES	Vaccinia stage	Vaccinia stage Venus
O=C(C[C@H]1CC[C@@H](NC(=O)Nc2cc(F)ccc2F)[C@@H](CO)O1)Nc1ccc(-c2ccccc2)cc1	-15	-1
CN(C[C@H]1N[C@@H](CO)[C@H]1c1ccc(-c2cccc(F)c2)cc1)C(=O)CC1CC1	-33	-20
C[C@H](CO)N1C[C@H](C)[C@H](CN(C)C(=O)Nc2cccc3ccccc23)Oc2ccc(NS(C)(=O)=O)cc2CC1=O	38	22
C[C@H](CO)N1C[C@H](C)[C@H](CN(C)Cc2ccc(Oc3ccccc3)cc2)Oc2ccc(NS(=O)(=O)c3ccc(F)cc3)cc2CC1=O	?	nt
COc1ccccc1CNC(=O)C[C@H]1C[C@H]2c3cc(NC(=O)CN(C)C)ccc3O[C@H]2[C@@H](CO)O1	-16	4
CC(=O)Nc1ccc2c(c1)C(=O)N(C)[C@H]1CC[C@@H](CC(=O)NCc3ccc(Cl)cc3)O[C@@H]1CO2	23	14
CNC(=O)C[C@H]1CC[C@H]2[C@@H](COc3ccc(NC(=O)Nc4ccc(F)c(F)c4)cc3C(=O)N2C)O1	6	0
COc1ccc(-c2cnc3c(c2)C(=O)N([C@H](C)CO)C[C@H](C)[C@@H](CN(C)C(=O)Cc2ccncc2)O3)cc1	-3	-7
COc1ccc(NC(=O)Nc2ccc3c(c2)CC(=O)N([C@@H](C)CO)C[C@H](C)[C@H](CN(C)S(=O)(=O)c2ccc(F)cc2)O3)cc1	-19	-14
C[C@@H]1CN([C@H](C)CO)C(=O)c2cc(C#CC3CC3)cnc2O[C@@H]1CN(C)C(=O)c1ccccc1	19	8
CN(C)CC#Cc1ccc([C@@H]2[C@H]3CN(C(=O)CN(C)C)CCCCN3[C@H]2CO)cc1	29	7
O=C(Nc1ccc(Cl)cc1)N1C[C@H]2[C@@H](c3ccccc31)[C@@H](CO)N2C(=O)c1cccnc1	-1	11
COCc1cn(CC[C@@H]2CC[C@@H](NC(=O)Nc3ccc(F)cc3)[C@H](CO)O2)nn1	6	3
N#C[C@@H]1[C@@H](c2ccccc2-c2ccc(F)cc2)[C@H](CO)N1C(=O)NC1CCCCC1	-7	-9
COc1ccc(CN(C)C[C@H]2Oc3c(NC(=O)Nc4ccccc4)cccc3C(=O)N([C@H](C)CO)C[C@@H]2C)cc1	-4	2
CCC(=O)N1CC(=O)N2[C@H](CO)[C@@H](c3ccc(C#Cc4cccnc4)cc3)[C@@H]2C1	-2	4
C[C@@H]1CN([C@H](C)CO)C(=O)c2cccc(NC(=O)c3cnccn3)c2O[C@@H]1CN(C)C	18	9
C[C@H](CO)N1C[C@H](C)[C@H](CN(C)C(=O)c2ccncc2)Oc2ncc(C#C[C@@H](C)O)cc2C1=O	24	11
O=C(C[C@H]1CC[C@@H]2[C@H](COC[C@@H](O)CN2Cc2cccc(C(F)(F)F)c2)O1)NCc1ccc(F)cc1	?	nt
C[C@@H]1CCCCO[C@@H](CN(C)Cc2ccncc2)[C@@H](C)CN([C@@H](C)CO)C(=O)c2cc(NS(=O)(=O)c3ccc(F)cc3)ccc2O1	-9	-7
CC(=O)N(C)C[C@H]1Oc2ncc(-c3ccc(F)cc3)cc2C(=O)N([C@@H](C)CO)C[C@@H]1C	4	13
O=C(N[C@H]1c2ccccc2C[C@H]1O)C1=C[C@H](c2coc3ccccc3c2=O)C[C@H](OCCCCO)O1	-17	1
COc1ccc(NC(=O)Nc2ccc3c(c2)C(=O)N([C@H](C)CO)C[C@@H](C)[C@H](CN(C)Cc2ccc(Cl)c(Cl)c2)OCCCC[C@H](C)O3)cc1	-18	-18
C[C@H](CO)N1C[C@H](C)[C@@H](CN(C)C(=O)Nc2ccccc2)Oc2ccc(NC(=O)Nc3cccc4ccccc34)cc2C1=O	3	12
COCCN(C[C@H]1[C@H](c2ccccc2)[C@@H](CO)N1C(=O)C1CC1)C(C)=O	11	12
CNC[C@@H]1OCCCC[C@@H](C)Oc2ccc(NC(=O)NC3CCCCC3)cc2C(=O)N([C@H](C)CO)C[C@H]1C	16	14
O=C(c1ccncc1)N1CC(=O)N2[C@H](C1)[C@H](c1ccc(-c3ccccc3F)cc1)[C@@H]2CO	4	-2
Cc1ccc(S(=O)(=O)Nc2ccc3c(c2)C(=O)N([C@H](C)CO)C[C@H](C)[C@@H](CN(C)C)O3)cc1	16	6
C[C@H](CO)N1C[C@H](C)[C@H](CN(C)C(=O)c2ccc3c(c2)OCO3)Oc2ncc(C3=CCCCC3)cc2C1=O	-6	-16
COc1ccc(NC(=O)Nc2ccc3c(c2)C(=O)N([C@@H](C)CO)C[C@H](C)[C@H](CN(C)Cc2ccc(C(F)(F)F)cc2)OCCCC[C@H](C)O3)cc1	19	11

Whole records, looked up by structure.
Listed for Cc1ccc(S(=O)(=O)Nc2ccc3c(c2)C(=O)N([C@H](C)CO)C[C@H](C)[C@@H](CN(C)C)O3)cc1 : Vaccinia stage = 16; Vaccinia stage Venus = 6
Listed for CCC(=O)N1CC(=O)N2[C@H](CO)[C@@H](c3ccc(C#Cc4cccnc4)cc3)[C@@H]2C1 : Vaccinia stage = -2; Vaccinia stage Venus = 4

Carrying on:
SMILES	Vaccinia stage	Vaccinia stage Venus
CCS(=O)(=O)N1CC2(C1)[C@H](c1ccccc1)[C@@H](CO)N2Cc1ccccn1	4	4
CC(C)CC#Cc1cnc2c(c1)C(=O)N([C@H](C)CO)C[C@H](C)[C@@H](CN(C)C(=O)Nc1ccccc1F)O2	11	7
Cc1ccc(S(=O)(=O)Nc2ccc3c(c2)CC(=O)N([C@H](C)CO)C[C@H](C)[C@@H](CN(C)CC2CC2)O3)cc1	-9	1
COc1cccc(NC(=O)Nc2ccc3c(c2)C(=O)N(C)C[C@@H](OC)[C@H](C)CN(CC2CC2)[C@@H](C)CO3)c1	-30	-6
Cc1noc(C)c1NC(=O)N(C)C[C@@H]1Oc2ccc(NC(=O)Cc3cn(C)c4ccccc34)cc2C(=O)N([C@H](C)CO)C[C@@H]1C	16	5
COc1ccc(NC(=O)Nc2ccc3c(c2)CC(=O)N([C@H](C)CO)C[C@H](C)[C@@H](CN(C)S(=O)(=O)c2ccc(Cl)cc2)O3)cc1	-2	3
COc1ccc(NC(=O)N(C)C[C@H]2Oc3ccc(NC(=O)CCCCCC(=O)Nc4ccccc4N)cc3C(=O)N([C@@H](C)CO)C[C@H]2C)cc1	14	8
C[C@@H]1CN([C@@H](C)CO)C(=O)c2c(c3ccccc3n2C)-c2ccccc2CO[C@@H]1CN(C)S(=O)(=O)c1ccc(Cl)cc1	-32	-40
O=C(O)[C@@H]1[C@@H](CO)[C@@H]2Cn3c(ccc(C4=CCCCC4)c3=O)[C@H]1N2C(=O)Cc1ccccn1	11	9
N#C[C@H]1[C@@H](c2ccc(C#Cc3ccccc3F)cc2)[C@@H](CO)N1C(=O)C1CCCCC1	-22	-20
C[C@H](CO)N1C[C@H](C)[C@@H](CN(C)Cc2ccc(C(=O)O)cc2)Oc2ccc(NC(=O)Cc3cn(C)c4ccccc34)cc2C1=O	2	-1
COc1ccc(S(=O)(=O)N(C)C[C@H]2Oc3c(cccc3N(C)C)C(=O)N([C@@H](C)CO)C[C@H]2C)cc1	21	14
C[C@H]1CN([C@@H](C)CO)C(=O)c2cc(NC(=O)Cc3cn(C)c4ccccc34)ccc2O[C@@H]1CN(C)Cc1ccc(C(F)(F)F)cc1	-13	-10
C[C@@H]1CN([C@H](C)CO)C(=O)Cc2cc(NC(=O)C3CC3)ccc2O[C@H]1CN(C)Cc1ccc(Oc2ccccc2)cc1	-8	-5
C[C@H](CO)N1C[C@H](C)[C@H](CN(C)C(=O)C2CCOCC2)Oc2ncc(C#CCc3ccccc3)cc2C1=O	-2	4

A portion of the library. The share of hits here may be higher or lower than overall.
